# CHOP UPR activ: activators of apoptotic arm of unfolded protein response (CHOP); CHO-CHOP luciferase reporter, UPR activation, luminescence; percent of tunicamycin response over DMSO baseline; AID 449763; activation, % at 10 µM; actives 0.34% (n = 330,000);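 active = at 10 µM dose, activation of 40% or more, normalized to positive control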;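 note: 100% = tunicamycin at 10 µg/mL and 0% = DMSO alone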
#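 Assay system: CHO cells with stable CHOP pathway luciferase reporter; Buffer or medium: F12 plus 10% serum; Times: 16-18 h cell attachment, then 6 h compound exposure, 37 °C; Signal: luciferase luminescence; Read-out basis: percent activation relative to tunicamycin control; Control set: tunicamycin high control, DMSO low control.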
# EBI2 antag: EBI2 (human) antagonism | AID 651636 | P32249 | EBI2 beta-arrestin recruitment, luminescence, 7a,25-OHC stimulated | actives 0.81% (n = 360,000) | inhibition, % at 5 µM; in the data active = inhibition above about 38%;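 note: enzyme fragment complementation signal reports receptor beta-arrestin coupling in cells; 0% = agonist plus DMSO wells and 100% = wells without agonist; some results beyond the cut were filed as inactive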
# tim23-1 inh: tim23-1 yeast growth inhibition | inhibition, % at 20 µM | actives 1.3% (n = 330,000) | S. cerevisiae tim23-1 growth, BacTiter-Glo luminescence, 24 h | AID 463212;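 active = growth inhibition of the mutant yeast at or above 50%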;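 note: temperature-sensitive mutant grown at 25 °C; plate controls were DMSO-treated mutant yeast for no effect and medium wells lacking yeast for full effect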
# UPR XBP1 act: adaptive UPR (XBP1) activation | CHO-XBP1 luciferase reporter, IRE1-XBP1 UPR activation, luminescence; percent of tunicamycin response, DMSO as zero | actives 0.33% (n = 330,000) | activation, % at 20 µM | AID 463104;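 active = versus positive control, 20 µM dose yields 30% or more activation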;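 note: 100% = tunicamycin at 10 µg/mL and 0% = DMSO only wells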
#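 assay system = CHO-XBP1 luciferase reporter cells | amount = 1000 cells/well | buffer or medium = F12 plus 10% FBS | compound dosing = single point, 20 µM final compound, 1% DMSO | incubation = 16-18 h cell attachment at 37 °C, then 6 h compound exposure | detection = Steady-Glo luminescence read | controls = tunicamycin 10 µg/mL and vehicle-only wells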
# APJ ag: agonists of human APJ apelin receptor; P35414; actives 0.11% (n = 330,000); CHO-K1 APJ PathHunter beta-arrestin, luminescence; 0% DMSO wells, 100% apelin; activation, % at 20 µM;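 active = activation more than six SD over the plate average, tested at 20 µM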;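 note: 0% = DMSO alone and 100% = apelin-13 at 10 nM; some results filed as inactive read as strong as hits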
#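 Test system: CHO-K1 APJ beta-arrestin complementation cell line | Compound: Single test compound dose, 20 µM final, 1% DMSO | Incubation: Compound 90 min 25 °C, reagent 1 h | Measured by: beta-gal luminescence | Read-out basis: APJ–arrestin association signal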
# Mdm2 MdmX PPI: human Mdm2/MdmX binding inhibition; actives 3% (n = 330,000); SaOS-2 split-luciferase Mdm2/MdmX complementation, luminescence; inhibition, % at 8 µM; O15151+Q00987;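 active = inhibition of at least 50% at 8 µM in the primary screen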
# Target sequence (O15151 whole entry, looked up): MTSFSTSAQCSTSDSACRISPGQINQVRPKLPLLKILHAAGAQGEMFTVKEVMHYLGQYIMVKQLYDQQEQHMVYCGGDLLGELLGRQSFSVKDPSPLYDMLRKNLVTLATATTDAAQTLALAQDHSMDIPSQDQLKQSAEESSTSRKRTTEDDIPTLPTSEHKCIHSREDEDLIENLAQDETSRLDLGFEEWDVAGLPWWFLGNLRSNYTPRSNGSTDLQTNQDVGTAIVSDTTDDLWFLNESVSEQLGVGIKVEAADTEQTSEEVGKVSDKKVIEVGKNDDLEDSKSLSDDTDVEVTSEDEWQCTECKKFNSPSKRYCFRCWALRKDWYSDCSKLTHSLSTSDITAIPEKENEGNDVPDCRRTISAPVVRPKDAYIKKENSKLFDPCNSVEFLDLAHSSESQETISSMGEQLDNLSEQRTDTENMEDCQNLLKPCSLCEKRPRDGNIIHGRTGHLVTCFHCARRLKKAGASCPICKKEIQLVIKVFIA
# Target sequence (Q00987 whole entry, looked up): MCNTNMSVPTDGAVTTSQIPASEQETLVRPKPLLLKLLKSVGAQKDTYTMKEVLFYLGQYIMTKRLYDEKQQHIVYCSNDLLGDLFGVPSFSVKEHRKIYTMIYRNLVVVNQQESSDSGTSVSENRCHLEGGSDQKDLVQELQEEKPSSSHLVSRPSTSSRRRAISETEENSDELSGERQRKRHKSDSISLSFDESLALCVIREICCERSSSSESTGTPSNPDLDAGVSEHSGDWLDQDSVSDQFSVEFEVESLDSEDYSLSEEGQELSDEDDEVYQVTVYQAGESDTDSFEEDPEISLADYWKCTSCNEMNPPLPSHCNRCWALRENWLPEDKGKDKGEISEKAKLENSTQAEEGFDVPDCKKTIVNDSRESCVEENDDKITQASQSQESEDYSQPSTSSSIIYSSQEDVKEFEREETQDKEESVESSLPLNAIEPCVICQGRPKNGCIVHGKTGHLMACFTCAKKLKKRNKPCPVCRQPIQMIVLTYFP
# APJ antagonist: APJ receptor antagonism; P35414; CHO-K1 APJ beta-arrestin complementation, luminescence; inhibition, % at 20 µM; actives 0.32% (n = 330,000);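 active = inhibition above about 40% at 20 µM, limit read from the data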;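 note: cells challenged with 10 nM apelin-13 agonist together with compound; plate controls were apelin-13 plus DMSO wells for no effect and DMSO wells lacking apelin-13 for full effect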
# The depositor's hits bear a star; nt = no result given; & = joins results of further samples. This is a subset. The share of hits here may be higher or lower than overall.
SMILES,CHOP UPR activ,EBI2 antag,tim23-1 inh,UPR XBP1 act,APJ ag,Mdm2 MdmX PPI,APJ antagonist
Cc1ccc(-n2[nH]c(C)c(/C=N/Nc3ccc([N+](=O)[O-])cc3[N+](=O)[O-])c2=O)cc1C,0.6,13.2,30.4,-1.3,-0.6,23.6,26.1
CC(C)C(NC(=O)c1c(F)cccc1F)C(=O)NNC(=O)c1ccccc1 (stereo not given),0.6,-7.3,-0.4,0.4,-1.6,-5.2,-6.2
COc1ccc(-c2nnc(NC(=O)c3ccc(F)cc3)o2)cc1,-1.1,-12.2,10.8,2.1,-5.6,35.2,17.9
CC(C)CN1CCC(CN2CCNC(=O)C2=O)CC1,nt,-3.6,nt,nt,nt,nt,nt
CC1(C)NC(=O)N(CNc2cc(Cl)ccc2Cl)C1=O,-0.8,3.8,1.1,-1.0,0.0,6.0,5.6
Cc1cccc(/C=N/NC(=O)c2cc(Br)ccc2O)n1,3.4,0.6,13.4,2.4,-3.6,5.0,12.2
COc1ccc(/C=N/Nc2cc(C)nc(-n3nc(C)cc3C)n2)cc1,52.2*,49.3*,18.7,8.3,-6.6,53.7*,30.7
CCOC(=O)N/N=C/C=C/c1ccccc1[N+](=O)[O-],1.2,-5.6,24.3,-0.4,2.5,3.2,12.6
CCOc1ccc(OCCNC(=O)C(NC(=O)c2c(F)cccc2F)C(C)C)cc1 (stereo not given),0.1,1.9,8.7,-0.2,-4.7,-12.6,10.6
CC(NC(=O)COC(=O)CCC(=O)c1ccc(F)cc1)c1ccccc1 (stereo not given),1.4,-11.3,12.6,0.4,-2.4,-19.5,4.7
COc1ccccc1-n1cnnc1SCC(=O)NCC1CCCO1 (stereo not given),0.6,-8.7,7.8,0.7,-2.8,12.9,-10.3
CS(=O)(=O)c1ccc(-c2csc(-c3cccnc3)n2)cc1,1.8,9.8,11.5,0.3,-1.2,-15.4,5.0
CC1=CCCC(C)(C)C1/C=C/C(C)=N/NC(=O)c1ccncc1 (stereo not given),-0.4,8.1,28.2,2.1,-0.8,2.1,6.0
CCC(=O)c1cccc2c1N=CC1=C(CC(C)(C)CC1=O)N2,10.3,5.2,26.0,-3.4,-5.5,5.3,6.1
COc1cccc(C(=O)COc2ccccc2N2C(=O)C3C4C=CC(C4)C3C2=O)c1 (stereo not given),0.4,-11.2,25.9,-4.4,-1.4,-1.4,-6.9
CCN(CCNC(=O)C1CCN(S(=O)(=O)CC)CC1)c1ccccc1,-2.2,-6.1,12.1,1.2,-3.4,14.3,-2.7
Cc1cccc(C(=O)Nc2sc3c(c2C#N)CCCCC3)c1,0.3,17.7,3.5,-0.9,-1.7,-82.6,28.8
COc1ccc(-c2csc3ncnc(N4CCN(S(=O)(=O)c5ccc(Cl)s5)CC4)c23)cc1,0.1,36.1,13.2,-1.9,-5.8,10.8,6.1
Cc1c(OC(C)C(=O)N2C[C@H]3C[C@@H](C2)c2cccc(=O)n2C3)ccc2c3c(c(=O)oc12)CCCC3 (stereo not given in full),0.8,-9.4,11.6,-1.8,-5.4,9.7,12.8
CSc1nc(N2CCCC2)c2c(c1C#N)CC(C)(C)OC2,-1.3,-1.5,6.6,-1.6,4.2,-31.2,-5.5
CN(CC(=O)Nc1ccc(F)c(F)c1F)C(=O)c1nn(Cc2ccccc2)c(=O)c2ccccc12,0.3,-5.6,8.4,-1.1,-0.1,8.8,-4.4
COc1ccc(CN2C(=O)C(CC(C)C)Nc3ncnc(N4CCN(c5ccccc5)CC4)c32)cc1 (stereo not given),1.9,10.8&4.4,35.2,6.8,3.1,16.9,-4.3
COC(=O)c1cccc(CN2C(=O)SC(Nc3ccc(C)cc3)C2=O)c1 (stereo not given),-0.6,-0.7,27.5,-0.3,-2.9,10.7,24.4
Cc1ccc(CNCc2cc3c(C(C)(C)C)nn(-c4ccccc4)c3[nH]c2=O)cc1,0.9,5.8,45.7,8.2,6.3,50.0*,5.1
O=C(NNS(=O)(=O)c1ccc(Br)cc1)c1ccccc1-n1cccc1,-0.4,-10.4,25.3,-1.6,8.3,7.5,3.4

# Just UPR XBP1 act, EBI2 antag and tim23-1 inh, for 2 of the compounds above:
molecule	UPR XBP1 act	EBI2 antag	tim23-1 inh
CCOC(=O)N/N=C/C=C/c1ccccc1[N+](=O)[O-]	-0.4	-5.6	24.3
CCOc1ccc(OCCNC(=O)C(NC(=O)c2c(F)cccc2F)C(C)C)cc1 (stereo not given)	-0.2	1.9	8.7

# Going on with the list:
SMILES,CHOP UPR activ,EBI2 antag,tim23-1 inh,UPR XBP1 act,APJ ag,Mdm2 MdmX PPI,APJ antagonist
N#CC(c1ccccc1F)(c1ncc(C(F)(F)F)cc1Cl)N1CCOCC1 (stereo not given),-1.3,1.2,29.9,-1.1,-3.2,-23.2,7.1
NS(=O)(=O)c1cccnc1Nc1cccc(Cl)c1Cl,2.5,4.9,27.9,4.2,-1.2,18.3,1.8
NS(=O)(=O)c1ccc(NC(=O)c2ccc3nccnc3c2)cc1,1.8,-7.8,7.4,-0.1,-3.1,4.5,11.6
COC(=O)c1ccc(NC(=O)CSc2nnc(COc3ccccc3)n2C)cc1,2.0,10.1,3.9,-1.6,0.7,9.1,-14.1
CC(NC(=O)COC(=O)CN1C(=O)c2ccccc2C1=O)c1ccccc1 (stereo not given),1.4,3.6,-0.9,2.5,-4.9,-12.7,4.3
COc1ccc(-c2cnnn2-c2ccc(NC(=O)/C=C/c3ccc(OC)c(OC)c3)cc2)cc1,0.1,36.2,-2.3,4.1,-1.0,19.5,11.0
COc1ccc(C)cc1S(=O)(=O)NCCc1ccccc1,-0.6,-8.7,14.2,0.3,-0.6,-14.0,-4.3
O=c1c2c(nc3c(-c4cccc(Br)c4)c[nH]n13)CCCC2,26.1,-0.7,7.0,6.5,-4.3,31.9,17.1
CCN1CCN(c2oc(/C=C/c3ccccc3)nc2C#N)CC1,3.1,21.6,5.5,2.1,0.7,1.7,14.9
COc1ccccc1C1/C(=C(/O)c2ccccc2)C(=O)C(=O)N1CC(C)O (stereo not given),-1.2,6.3,3.7,-2.1,-0.2,-3.5,4.9
COc1cccc(NC(=O)Nc2c(C)n(C)n(-c3ccccc3)c2=O)c1,0.6,-10.9,25.9,0.6,-4.3,-3.1,-1.1
COc1ccc(-c2nnc(-c3cccnc3)o2)cc1,5.2,-7.2,-2.6,0.4,-3.9,17.1,2.7
Cc1csc(NC(=S)Nc2cccc(Cl)c2)n1,8.0,24.4,48.7,7.5,-1.4,-67.3,40.6*
COc1ccc(/C(C)=N/NC(=O)c2ccc(NS(=O)(=O)c3cccs3)cc2)cc1,-0.4,-0.9,18.8,0.2,-4.3,-2.7,-0.9
CCCCCSc1nc(O)cc(=O)[nH]1,1.2,-4.6,4.8,-2.7,-1.3,5.4,-10.7
Cc1ccc(-n2[nH]c(C)c(/C=N/Nc3ccc([N+](=O)[O-])cc3[N+](=O)[O-])c2=O)cc1,1.6,14.3,33.8,-0.9,-4.9,12.7,-18.6
COc1ccc2cc3cc(C(=O)NCCN4CCc5ccccc5C4)sc3nc2c1,5.5,-7.5,22.4,0.6,-3.5,-60.6,4.6
Cc1cccc(/C=C2/S/C(=N/N=C3\CC4CCC3(C)C4(C)C)NC2=O)c1 (stereo not given),-1.7,17.4,14.5,1.3,-2.9,35.5,14.1
COc1ccc(/C=N/NC(=O)c2cccc(C(=O)N/N=C/c3ccc(OC)cc3)n2)cc1,3.0,-6.9,-17.4,3.8,3.7,3.3,-25.4
CCOC(=O)c1cc(Br)c(=O)n2ccccc12,-3.4,-4.4,7.9,9.7,0.7,22.3,-4.3
COc1ccc(CN2C(=O)C(C)Nc3ncnc(N4CCOCC4)c32)cc1 (stereo not given),0.3,-0.1,15.5,4.0,-2.9,2.6,16.4
COc1ccc(N(C(C)=O)S(=O)(=O)c2cccc3cccnc23)cc1,-1.5,1.2,17.1,-1.6,3.7,17.6,-6.4
CCOC(=O)C1CCCN(c2nc3ccccc3nc2C(C#N)C(=O)OCCOC)C1 (stereo not given),1.6,2.3,39.5,-4.7,-1.1,10.7,-4.6
CCOC(=O)C(=O)N(C)c1c(CC)nc2c(OCCC3CCCCC3)cccn12,nt,3.3,nt,nt,nt,nt,nt
COC(=O)c1cc(OC)c(OC)cc1N=CC1=C(O)CC(C)(C)CC1=O,0.1,-3.4,11.3,7.3,-5.3,15.8,7.4
# (cont.)
SMILES,CHOP UPR activ,EBI2 antag,tim23-1 inh,UPR XBP1 act,APJ ag,Mdm2 MdmX PPI,APJ antagonist
NS(=O)(=O)c1ccc(NC(=O)COC(=O)C2(c3ccccc3F)CCCC2)cc1,-1.1,-24.9,10.0,-2.5,-1.1,16.9,-0.1
O=C(N[C@@H](Cc1ccccc1)C(=O)NCCc1c[nH]c2ccccc12)c1ccco1,-1.0,56.7*,1.9,-6.0,-2.8,17.7,16.5
O=C(NCc1ccccn1)c1ccc(Cn2c(=S)[nH]c3ccccc3c2=O)cc1,-2.1,-12.0,3.3,1.6,-3.7,30.5,12.6
CCC(=O)Nc1nonc1-c1nc2ccccc2n1Cc1cccc2ccccc12,-0.5,0.6,26.2,1.1,2.0,64.0*,2.7
COc1ccccc1-n1c(-c2cc(-c3ccc(F)cc3)n[nH]2)n[nH]c1=S,1.8,-3.2,-3.1,1.8,-3.1,14.1,-6.5
CC(=O)NCCOC(=O)c1nn(Cc2ccccc2)c(=O)c2ccccc12,-0.9,13.4,1.8,-3.3,-2.1,-4.4,4.0
COc1ccc(C2NC(c3ccc(OC)cc3OC)C(C)C(=O)C2C)c(OC)c1 (stereo not given),-2.9,-2.3,16.4,-3.2,0.1,7.6,17.1
CCN(CC)C(=O)c1nn(Cc2ccccc2)c(=O)c2ccccc12,-0.5,-5.5,12.7,-2.6,-6.5,14.9,19.9
O=S1(=O)CCC(NS(=O)(=O)c2ccc3ccccc3c2)C1 (stereo not given),-0.5,6.3,-2.9,-7.0,0.7,19.0,17.9
COc1cc(OC)c(OC)cc1/C=N/n1c(C)nnc1C,0.5,1.0,8.5,-3.4,-0.6,-4.8,5.3
CCOC(=O)[C@@H](C)N(Cc1ccc(OC)cc1)S(=O)(=O)N(Cc1ccccc1)[C@H](C(=O)OC)C(C)C,12.9,10.4,21.5,-3.7,-3.7,33.2,22.4
CC(C)NC(=O)NC(=O)COC(=O)Cc1c(F)cccc1Cl,-1.6,-3.5,14.8,-0.1,-1.7,-23.8,6.2
CC(=O)C1=C(C)Nc2ncnn2C1c1cccc(OCc2ccccc2)c1 (stereo not given),0.0,7.0,-14.5,-2.5,-1.6,17.0,-29.2
COC(=O)[C@@H](CC(C)C)NS(=O)(=O)N(Cc1ccccc1)[C@@H](CC(C)C)C(=O)OC,2.0,4.0,32.0,-2.3,-1.1,22.8,0.0
O=C(Nc1nc(-c2ccc(Cl)s2)cs1)c1ccco1,4.0,3.4,62.2*,4.8,-4.7,-54.2,0.5
COc1cc(C=C(C(C)=O)C(C)=O)ccc1O,-0.2,-2.8,20.2,-1.4,-1.3,2.3,9.2
COc1ccc(Br)cc1/C=N/n1c(C)nnc1C,-1.7,-7.1,23.2,-0.4,-2.7,18.3,-21.3
Cc1ccc(C)c(-c2csc(NC(=O)c3c(C)noc3C)n2)c1,-1.1,7.9,2.7,-3.5,-5.1,23.6,10.2
Fc1ccc(-c2csc(-c3cccnc3)n2)cc1F,4.2,17.9,17.0,7.2,-3.5,-16.9,-4.2
O=C(Oc1oc(-c2ccco2)nc1C=Nc1ccccc1)c1ccoc1,2.2,2.5,10.2,1.6,0.2,13.9,-2.3
CSC1=N/C(=C\c2ccccc2Cl)C(=O)N1N(C)C,1.9,-0.1,24.4,-0.7,1.4,-2.6,-7.0
O=C(Nc1nc(-c2ccccc2)c(-c2ccccc2)o1)c1ccc(F)cc1,2.2,5.1,22.9,1.7,-3.5,26.0,16.4

# From PubChem BioAssay
